Source: PubChem
fixLJ activator – activators of Burkholderia fixLJ two-component system, primary screen, B. multivorans, GFP reporter | B. multivorans fixK-promoter GFP reporter, 18 h; active compounds read high | z-score (no concentration beside the values) | 29,000 compounds, 0.3% hits | AID 1918990, 2023;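 active means replicate mean overnight rise in green fluorescent reporter signal, 3 or more SD over negative controls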;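 further: score is relative to vehicle wells of the plate; 300 nL library stock went into each well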
Starred values were filed as active, the others as inactive; & = joins results of further samples. Only part of the results is shown; the hit share may differ from the screen's.

| Structure | fixLJ activator |
| --- | --- |
| O=C(NCCc1cnc[nH]1)C1CC(c2ccccc2)N2CCC[C@@H]12 (stereo partly drawn) | -0.52 |
| Cc1ccccc1OCC(=O)Nc1ccc(OCc2cc(=O)n3ccsc3n2)cc1 | -0.47 |
| CC(C)N=C(N)/N=C(\N)Nc1ccc(Cl)cc1 | -2.3 |
| Cc1ccc(NC(=O)C2CCN(c3cc(C)nc4c(-c5ccc(Cl)cc5)c(C)nn34)CC2)c(C)c1 | 0.31 |
| COc1cccc2c1C1(CCN(C(=O)c3ccc(C)[nH]c3=O)CC1)OCC2 | -0.88 |
| COC1CN(Cc2cc(C(C)C)no2)CC1Cc1cc(C)no1 (stereo not drawn) | -0.94 |
| COc1cccc(-c2nc(SCC(=O)NC3CCCC3)c(-c3ccc(C)cc3)[nH]2)c1 | 2.2 |
| COc1cccc(CNC(=O)C2CCC(CNS(=O)(=O)c3ccc(Br)s3)CC2)c1 (stereo not drawn) | 0.07 |
| CCCC1=Nc2cc(C(=O)NC3CCCC3)ccc2Sc2ccc(C)cc21 | -2.2 |
| COCc1cc(N(C)Cc2n[nH]c3c2CCCCC3)n2nccc2n1 | 0.54 |
| COc1cc2nc(SCc3ccc(Cl)cc3)n3nc(CCn4nc(C)cc4C)nc3c2cc1OC | -0.5 |
| COCCNC(=O)CCc1c(C)nc2c(-c3ccc(F)cc3)c(C)nn2c1C | -1.5 |
| CCn1nc(C)c(CN2CCCn3nc(CNC(=O)C4CCC4)cc3C2)c1C | -0.87 |
| COc1ccc(-c2nn3c(-c4ccc(C)cc4)nnc3c3ccccc23)cc1 | -0.85 |
| CCOc1ccc(CN2C(=O)C(=O)c3cccc(C)c32)cc1OC | -1.1 |
| O=C(Cc1[nH]nc2ccccc12)N1CCC[C@@]2(CCCC2O)C1 (stereo partly drawn) | 0.33 |
| Cc1ccc(C)c(OCCCn2c(-c3ccc(Cl)cc3)nc3ccccc3c2=O)c1 | 0.26 |
| COCC(c1ccccn1)N(C)C(=O)c1cc(-c2ccccc2)on1 (stereo not drawn) | 1.2 |
| COc1ccc(/C=C/C(=O)Nc2ccc(Cl)c(Cl)c2)cc1 | 0.93 |
| Fc1ccc(CNc2nc(-c3ccc(Cl)cc3)cc(C(F)(F)F)n2)cc1 | -1.9 |
| CCn1cc(C(=O)NCc2ccccc2OC)c(=O)c2cc(S(=O)(=O)N3CCCCC3)ccc21 | 1.8 |
| CC(C)Cc1nc(CN(C)C(=O)c2cnnn2-c2ccccc2)no1 | -0.69 |
| COc1ccc(NC(=O)Cn2c(=O)c3cc(Cl)ccc3n3nncc23)cc1 | -0.04 |
| Cc1ccc(-n2c(=O)[nH]c3ccc(Br)cc3c2=O)cc1 | -1.1 |
| COc1ccc(C(=O)COC(=O)C(Cc2c[nH]c3ccccc23)NC(=O)c2ccc(C(C)(C)C)cc2)cc1 (stereo not drawn) | -0.66 |
| COc1cc(OC)cc(C(=O)Nc2ccc3nc4c(c(Nc5ccc(OC)c(OC)c5)c3c2)CCCC4)c1 | -0.27 |
| CC(C)c1ccc2c(c1)NC(c1ccc(F)cc1)=NC(c1cccs1)=N2 | 0.17 |
| CC1=C(C(=O)Nc2cccnc2)C(c2ccc(F)cc2)n2nc(SCc3ccccc3F)nc2N1 (stereo not drawn) | 0.22 |
| O=C(NCc1nc2ccccc2n1Cc1ccccc1Cl)c1ccccc1 | -2.7 |
| CCCOc1ccc(C(=O)Nc2ccc(NC(=O)c3cccc(Cl)c3)cc2)cc1 | -1.3 |

(cont.)
| Structure | fixLJ activator |
| --- | --- |
| CCOc1ccc(-n2c(CCC(=O)O)ccc2-c2ccc(Br)cc2)cc1 | -2.7 |
| Cc1cc2oc(=O)c(CC(=O)NCCc3ccccc3F)c(C)c2c2occ(C(C)(C)C)c12 | 0.4 |
| O=C(C1CC12CCNCC2)N1CCc2c(nc(-c3ccccc3)[nH]c2=O)C1 (stereo not drawn) | 0.07 |
| C[C@@H]1CC[C@H]2[C@@H](C)C(=O)O[C@@H]3O[C@@]4(C)CC[C@@H]1[C@]32OO4 | -1 |
| Cc1ccc(C)c(N2CCN(S(=O)(=O)c3ccc4oc(=O)c5ncn(C)c5c4c3)CC2)c1 | -0.68 |
| CCCc1c(C(=O)OCC)nnc2c(-c3ccccc3)c(C)nn12 | 1 |
| Cc1ccccc1OCc1nc2c3cnn(-c4ccccc4F)c3ncn2n1 | -1.3 |
| COc1ccc(NC(=O)CCc2c(C)nc3nc(CNC(=O)OC(C)(C)C)nn3c2C)cc1OC | -1.5 |
| O=C(Nc1cncc(F)c1)N1CCC(OCc2ccccc2)CC1 | -0.63 |
| O=C1CN(c2ccc(C(=O)NCc3c(F)cccc3Cl)cc2)C(=O)N1 | -0.32 |
| CCOc1ccccc1NC(=O)c1sc2nc3c(cc2c1N)CN(Cc1ccccc1)CC3 | -0.88 |
| Cn1c(=O)oc2cc(S(=O)(=O)NC(Cc3ccccc3)C(=O)Nc3ccc(F)c(Cl)c3)ccc21 (stereo not drawn) | -0.57 |
| CCc1cccc(NC(=O)Nc2csc3c2CCCC3)c1 | 0.67 |
| O=C(CCCCn1c(=O)c2ccccc2n(CC(=O)Nc2cccc(F)c2)c1=O)NCCc1ccccc1 | -1.5 |
| CCOC(=O)CSc1nc(-c2ccccc2)cc(C(F)(F)F)c1C#N | -0.72 |
| CCc1ccc(NC(=O)c2sc3nc(C)c(Cl)c(C)c3c2NC(=O)c2ccccc2OC)cc1 | -3.3 |
| COc1cc(OC)cc(-n2c(=O)c3sccc3n(Cc3ccc(F)cc3)c2=O)c1 | 0.79 |
| Cc1ccc(C(=O)Nc2ccc(S(=O)(=O)Nc3onc(C)c3C)cc2)cc1 | -1.3 |
| O=C(CN(CCc1ccccc1)S(=O)(=O)c1ccc(Br)cc1)NCc1ccc(Cl)cc1 | 0.62 |
| CN(Cc1cnn(-c2ccccc2)c1)C(=O)NCc1noc(C2CCCO2)n1 (stereo not drawn) | -0.73 |
| O=C(Nc1ccc(F)cc1)Nc1csc2c1CCCC2 | -1.7 |
| Cc1ccc(/C=C/C(=O)Nc2ccccc2C(N)=O)o1 | -2.5 |
| CCc1ccccc1OCCN1CCC2(CC1)C(C(=O)O)CC(=O)N2C (stereo not drawn) | -0.44 |
| CCC(=O)Nc1sc2c(c1C(=O)Nc1ccc(Br)cc1)CCCCC2 | 0.74 |
| CCc1ccc(NC(=O)C2CCN(S(=O)(=O)c3c(C)noc3/C=C\c3ccc(OC)cc3)CC2)cc1 | -0.19 |
| Cc1cc(NC(=O)CCNS(=O)(=O)c2ccc3c(c2)oc(=O)n3C)ccc1Br | 0.05 |
| CCOc1ccc(Nc2nnc(-n3nc(C)cc3C)c3ccccc23)cc1 | 0.21 |
| COC(=O)CNC(=O)CC1C(=O)NCCN1Cc1cccc2ccccc12 (stereo not drawn) | 0.52 |
| COc1cc(C(=O)N(C)Cc2nc3ccccc3c(=O)[nH]2)ccn1 | 0.71 |
| O=C(c1ccc(CSc2nc3ccncc3n2Cc2cccc(F)c2)cc1)N1CCCCC1 | -1.9 |

New compounds follow:
| Structure | fixLJ activator |
| --- | --- |
| CCN(CC)C(=O)c1ccc(NC(=O)COc2ccc(-c3nn(C)c(=O)c4ccccc34)cc2)cc1 | -0.9 |
| COc1ccc(-c2cc(C(=O)N3CCN(c4ccccc4)CC3)no2)cc1 | -0.12 |
| Cc1cc(CC2COCC2NC(=O)c2cc(-c3ccccc3O)n[nH]2)on1 (stereo not drawn) | -1.3 |
| Cc1ccc(NC(=O)N2CCN(c3ccc(Cl)c(Cl)c3)CC2)cc1 | 2.4 |
| COCC(=O)N1CCCN(CC(=O)Nc2ccc(N(C)C(C)=O)cc2)CC1 | 0.53 |
| Cc1ccc(Cn2cccc2C2=NC(C)(C)CO2)cc1 | -0.39 |
| O=C(Nc1cc2c(cc1C(=O)c1ccccc1Br)OCCO2)c1cccc(Cl)c1 | 0.54 |
| COc1ccccc1CNC(=O)c1ccc(NC(=O)N2CC(C)Sc3ccccc32)cc1 (stereo not drawn) | -0.54 |
| O=C(CCCN1CCC2(CC1)C(=O)NCN2c1ccccc1)c1ccc(F)cc1 | -1.2&-0.84 |
| O=C(C=Cc1cc(CO)cs1)NCC1CCCN(c2ncccn2)C1 (stereo not drawn) | -1.7 |
| Cc1ccccc1Cn1c(=O)n(CCC(=O)NCc2ccco2)c(=O)c2sccc21 | -0.43 |
| Cc1ccc(-n2nc(CO)c(C(=O)NCCc3ccccc3)n2)cc1 | -0.78 |
| CCC(C)NC(=O)Cn1c(=O)n(Cc2ccc(C(=O)NCc3ccccc3OC)cc2)c(=O)c2ccccc21 (stereo not drawn) | -1.8 |
| O=C(CCn1nnnc1CN1CCOCC1)N1CCCC1c1ccco1 (stereo not drawn) | 0.11 |
| C[C@@H](O)[C@@H]1NC(=O)[C@H](CCCCN)NC(=O)[C@@H](Cc2c[nH]c3ccccc23)NC(=O)[C@H](Cc2ccccc2)NC(=O)[C@@H](NC(=O)[C@H](N)Cc2ccccc2)CSSC[C@@H](C(=O)N[C@H](CO)[C@@H](C)O)NC1=O | -2.1 |
| COc1ccc(C(=O)NCc2cccnc2)cc1C(=O)NCc1cccnc1 | -1.1 |
| Cc1c(C(=O)OCCOc2ccccc2)[nH]c2c1C(=O)CC(c1ccc(C(C)(C)C)cc1)C2 (stereo not drawn) | -1.1 |
| Cc1nc(-c2ccc(Cn3cc(C4CCOC4)nn3)cc2)no1 (stereo not drawn) | -0.82 |
| NS(=O)(=O)c1ccc(CCNc2nnc(C3CC3)o2)cc1 | -1.1 |
| COc1ccc(-c2nc3ccc(Cl)cn3c2Nc2ccc(C)cc2)cc1 | -1 |
| CCC(=O)N1c2ccc(S(=O)(=O)NCc3cccc(OC)c3)cc2CC1C (stereo not drawn) | -2.4 |
| Cc1cc(C)c2oc(C(=O)N(Cc3ccc(F)cc3)C3CCS(=O)(=O)C3)cc(=O)c2c1 (stereo not drawn) | 0.55 |
| NCCc1nnc(SCc2ccc(Cl)cc2)o1 | -0.36 |
| COc1ccc(N(CC(=O)NCc2ccc(C)cc2)S(=O)(=O)c2c(C)[nH]c(=O)[nH]c2=O)cc1 | 0.68 |
| CCc1ccc(OCC(=O)Nc2cc3oc4ccccc4c3cc2OC)cc1 | -2.7 |
| Cc1ccc(-c2csc(-c3cc4c([nH]c3=O)CC(c3ccccc3)CC4=O)n2)cc1 (stereo not drawn) | 0.98 |
| COc1ccc(CNC(=O)c2cc(-c3cccc(Cl)c3)on2)cc1 | -1.9 |
| Cc1ccccc1Cn1c2ccccc2c2cnn(CC(=O)NCC(C)c3ccccc3)c(=O)c21 (stereo not drawn) | -1.2 |
| Cc1cc2ccccc2n1CCNC(=O)c1cccc(Cl)c1 | -0.64 |
| CC(Oc1ccccc1)C(=O)Nc1c(C(=O)Nc2cccc(F)c2)oc2ccccc12 (stereo not drawn) | -1.1 |

(listing goes on)
compound | fixLJ activator
COc1ccc(Cl)cc1NC(=O)C(=O)NCc1ccc(Cl)cc1 | 2.3
CCN(CC)S(=O)(=O)c1ccc2c(c1)N(CC(=O)NCCCN1CCN(c3ccccc3F)CC1)C(=O)CO2 | 0.55
COc1ccc(-c2cc(C(F)(F)F)n3nc(-c4ccccc4)cc3n2)cc1OC | -0.76
COC(=O)c1ccc(NC(=O)CSc2n[nH]c(CC(C)C)n2)cc1 | -1.8
Cc1cccc(-c2cc(-c3ccccc3)nc(SCC(=O)Nc3ccccc3)c2C#N)c1 | 0.15
COc1ccc(S(=O)(=O)NCc2nc3nc(C)cc(C)n3n2)cc1 | -2.2
COc1ccc(OCCSc2nc(C)c(Cc3ccccc3)c(=O)[nH]2)cc1 | -0.44
COc1ccc(CCNC(=O)Cc2c(C)c3ccc(O)c(C)c3oc2=O)cc1OC | -2.4
Cc1cccc(N2CCC(NS(=O)(=O)c3ccccc3C(=O)O)CC2)c1 | -2.2
CCc1c(C)c(C#N)c2nc3ccccc3n2c1Nc1cccc(C(F)(F)F)c1 | -3.4
Cc1cnn(CCC(=O)N2CCC(c3nc(N)n[nH]3)CC2)c1 | -2.4
Clc1cccc(C2=NC(c3cccs3)=Nc3ccc(Br)cc3N2)c1 | 1.1

(next part)
compound | fixLJ activator
CCN(CC)CCCNC(=O)c1nn(-c2ccc(OC)cc2)c(=O)c2c1c1ccccc1n2C | -1
CC1=C(C(=O)OCc2ccc(C)cc2)C(c2ccccc2C(F)(F)F)CC(=O)N1 (stereo not drawn) | -0.35
CCOc1ccc(C(=O)c2cn(Cc3ccc(OC)cc3)c3cc(OC)c(OC)cc3c2=O)cc1 | -0.24
COc1ccc2[nH]c(=O)c(-c3nccn3CC3CC(=O)N(C4CCCC4)C3)cc2c1 (stereo not drawn) | -0.6
CC(=O)c1cccc(Nc2nc(-c3cccc(C)c3)nc3ccccc23)c1 | 0.11
COc1cc(SC)ccc1C(=O)N1CCn2c3c(c4cc(C)ccc42)CCCC31 (stereo not drawn) | -1.6
COc1nc2c(cc1C(=O)N1CC(O)C(Cc3cc(C)[nH]n3)C1)CCC2 (stereo not drawn) | -0.68
CCOC(=O)CCn1c(=O)c2cccn2c2cccnc21 | 0.62
Cc1cccc(N2CCN(C(=O)C3CCN(S(=O)(=O)c4ccc5c(c4)oc(=O)n5C)CC3)CC2)c1C | -1.9
COc1ccc(NC(=O)Cn2c(=O)n(CCC(=O)NCc3ccccc3OC)c(=O)c3ccccc32)cc1Cl | -1.2
CS(=O)(=O)CCNC(=O)c1ccc(-c2cc(C(F)(F)F)ccn2)cc1 | 0.75
